D2 PAM: positive allosteric modulators of human D2 dopamine receptor. P14416. DiscoveRx D2 beta-arrestin cells, luminescence, 90 min; 100% = 57 uM dopamine signal. potentiation, % (concentration not given with the values). 360,000 compounds, 0.23% hits. AID 624464; active = potentiation of 50% or more; inconclusive = 30% to 50%; inactive = 30% or less;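 further: tested on top of an EC20 dose of dopamine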
Target sequence (P14416 whole entry, looked up): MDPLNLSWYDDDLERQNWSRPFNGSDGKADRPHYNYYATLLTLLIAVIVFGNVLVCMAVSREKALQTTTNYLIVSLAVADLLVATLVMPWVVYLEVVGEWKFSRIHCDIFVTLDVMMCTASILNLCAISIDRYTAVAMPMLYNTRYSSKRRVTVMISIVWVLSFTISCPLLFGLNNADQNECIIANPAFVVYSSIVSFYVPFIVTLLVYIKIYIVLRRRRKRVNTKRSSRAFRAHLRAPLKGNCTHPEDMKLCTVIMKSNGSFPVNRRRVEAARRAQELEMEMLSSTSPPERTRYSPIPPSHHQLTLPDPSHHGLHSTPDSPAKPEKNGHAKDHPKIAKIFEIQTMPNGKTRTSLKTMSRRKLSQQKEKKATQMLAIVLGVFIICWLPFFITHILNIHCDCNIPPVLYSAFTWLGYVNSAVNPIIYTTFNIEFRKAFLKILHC
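PathHunter D2 cells, attached overnight at 37 deg C, received compound in DMSO plus dopamine at EC20 (50 nM final) for 90 min at 37 deg C. Beta-arrestin recruitment was read as luminescence after 1 h with detection reagent at ambient temperature.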
gsp antag: antagonists of gsp mutant (McCune-Albright syndrome); gsp-mutant cells, cAMP HTRF, 30 min; control for the full effect not named in the record; Potency, µM (titrated, usually from 76.9 µM), inactives show at the highest dose activity change, negative = inhibition, most hits filed as inhibitors; 340,000 compounds, 0.4% hits; AID 624288; active = falling curve of any shape with a large fitted effect; inconclusive = falling curve, mostly with a smaller effect; inactive = flat or rising curve; cell line not stated here;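 further: intracellular cAMP measured with PDE inhibitor Ro 20-1724 present during compound exposure; potency means the concentration at half of the fitted maximal effect; on the % scale 0 is the no-effect control and ±100 the full control effect; nearly all actives have a fitted effect of over 65% in size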
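G418-selected cells were plated in DMEM/10% FBS for 16-24 h at 37C, then treated with compounds plus the PDE inhibitor […] (300 uM solution added) for 30 min at 37C. Intracellular cAMP was measured by HTRF after 30 min lysis at room temperature.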
gsp agonist: gsp mutant agonism; AID 624287; gsp mutant cells, cAMP HTRF, 30 min; control for the full effect not named in the record; 340,000 compounds, 0.13% hits; Potency, µM (series often up to 76.9 µM), inactives show at the highest dose activation (cAMP increase), most hits filed as activators; active = well fitted activation curve with a large enough effect; inconclusive = small, poorly fitted or top-dose-only effect, or another doubt; inactive = no such curve, though single readings can be large or run the other way; cell line not stated here;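 further: phosphodiesterase inhibitor Ro 20-1724 added with compounds to block cAMP breakdown; potency means the concentration at half of the fitted maximal effect; nearly all actives have a fitted effect of over 60% in size; about a fifth of the inactives were tested at one dose only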
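Cells stably selected in G418 were plated at 2000/well, grown 16-24 hr, then given compounds in DMSO with the PDE inhibitor […] (300 uM solution added) for 30 min at 37C; cAMP was read by HTRF.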
ClpP mod: qHTS Assay for Activators of ClpP; ATP-dependent Clp protease proteolytic subunit (Bacillus subtilis (strain 168)), P80244; purified B. subtilis ClpP, FRET peptide cleavage, 20 min; Potency, µM (doses to about 57.5 µM), inactives show top-dose activity change, negative = active; 340,000 compounds, 1.9% hits; AID 651965, 2013; active = well fitted falling curve with a large enough effect; inconclusive = small, poorly fitted or top-dose-only effect; inactive = no such curve, though single readings can be large or run the other way; further: potency means the concentration at half of the fitted maximal effect; the source files actives as falling curves though it sought activators and does not explain the sign; nearly all actives have a fitted effect of over 65% in size; many hits overshoot -100%
Target sequence (P80244 whole entry, looked up): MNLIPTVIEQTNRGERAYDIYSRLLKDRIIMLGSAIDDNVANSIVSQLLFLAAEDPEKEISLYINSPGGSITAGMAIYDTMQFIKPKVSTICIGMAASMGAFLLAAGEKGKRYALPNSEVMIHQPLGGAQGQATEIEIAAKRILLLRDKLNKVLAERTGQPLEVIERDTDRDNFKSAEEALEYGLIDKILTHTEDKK
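Purified B. subtilis ClpP, 10 microg/mL final in Tris/HCl pH8 with KCl, BSA, glycerol and Tween-20, cleaved an Abz/nitrotyrosine-quenched decapeptide. Fluorescence (ex 320, em 430) was read at 0 and 20 min at room temperature. Delta was normalized to 5.8 microM ADEP and DMSO/no-enzyme controls.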
Menin MLL FP FL: inhibitors of human menin-MLL interaction, wild-type MLL peptide; Fluorescence polarization, fluorescein-MLL peptide displacement from menin; FP activity change, % at 61.4 µM; 290,000 tested, under 10 active; AID 1766; inconclusive = falling polarisation curve, or a change in total fluorescence; inactive = total fluorescence flat and polarisation flat or rising; no compound was filed as active; the % refers to the polarisation; negative = inhibition;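 further: % of control where 0% means no effect; inhibitors lower the polarisation; unlabelled MLL peptide was the positive control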
TRPV1 PAM: human TRPV1 potentiation; AID 540277; Q8NER1; TRPV1-expressing cells, Fluo-8 calcium influx, capsaicin EC20 potentiation; host cell line not named in the record; control for the full effect not named in the record; potentiation, % at 8.33 µM; 320,000 compounds, 0.02% hits; active means potentiation above 80%; inconclusive means 30% to 80%; inactive means below 30%; further: 0% is about no effect
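Fluo-8 calcium influx in TRPV1-expressing cells, kinetic read (ex 480/em 520 nm). Compound added and read 3 min for agonist activity, followed by capsaicin at EC20 final and 2 min further read for enhancement.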
Sfp inh: blocks B. subtilis Sfp PPTase activity; Q9F4F7; Biochemical Sfp PPTase activity, qHTS; Potency, µM, for inactives: max response, negative = inhibition, hits mostly inhibitors; 310,000 compounds, 3.5% hits; AID 1490; active means well fitted inhibition curve with a large enough effect; inconclusive means small, poorly fitted or top-dose-only effect, or another doubt; inactive means no such curve, though single readings can be large or run the other way;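 further: the enzyme is Sfp with the accession as filed and its product quenches rhodamine fluorescence; potency means the concentration at half of the fitted maximal effect; 0% = enzyme reaction without inhibitor and -100% = no enzyme wells; top concentration of the series not given in the record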
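Reaction rates are the 30-min fluorescence difference (ex 525, em 598 nm) in wells containing 15 nM Sfp, 5 uM rhodamine-CoA and 12.5 uM BHQ-2-YbbR at pH 7.6 with 10 mM MgCl2.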
Active calls of the source: *; ? = inconclusive; · = not tested or not shown; & = joins results of further samples; [ ] = another dose, or the depositor's remark.

Every second line gives: D2 PAM	gsp antag	gsp agonist	ClpP mod	Menin MLL FP FL	TRPV1 PAM	Sfp inh
> COc1cc2c(cc1OC)C1=C(C#N)COCN1CC2
    -5	12%	5%	-25%	-0.2	8	-20%
> O=C(c1cc(-c2ccncc2)nc2ccccc12)N1CCN(c2ccccc2O)CC1
    2	-15%	19%	1.1%	·	-17	1%
> Cc1cc(C)nc(SCC(=O)Nc2ncc(Cc3cccc(Cl)c3)s2)n1
    -3	12%	-49%[inhibitor]	0.9%	4.4	-1	3%
> O=S(=O)(Nc1ccc(-c2ccc(NS(=O)(=O)c3ccccc3)cc2)cc1)c1ccccc1
    -2	?	1%	·	·	·	·
> CCCCS(=O)CC(O)COCC (stereo unspecified)
    -10	7%	12%	-0.1%	0.2	-1	-2%
> COc1cc(C)ccc1Oc1ncnc(N)c1[N+](=O)[O-]
    -2	16%	3%	0.4%	-2.0	-6	5%
> CCc1nc(N2CCN(C(=O)c3ccccc3)CC2)c2c3c(sc2n1)CCCC3
    -7	-48%	-13%[15.4 µM]	1.5%	2.7	-10	-27%
> CCC(=O)Nc1cc2c3c(c1)CCC(=O)N3CCC2
    3	-4%	-2%	1.6%	·	?	11%
> Fc1ccc(/C=N/Nc2nccnc2Cl)cc1
    -3	1%	27%	-2.8%	0.8	-1	-17%
> C=C1C(O)[C@@H]2O[C@]3(CC[C@H](/C=C/C(C)[C@@H]4CC(C)=CC5(O[C@H](C[C@@](C)(O)CO)CCC5O)O4)O3)CC[C@H]2O[C@@H]1C(O)CC(C)[C@H]1OC2(CCCCO2)CCC1C (stereo partly specified)
    -42	-21%	·	0.5%	·	·	·
> CN1CCN(c2oc(-c3ccccc3F)nc2S(=O)(=O)c2ccc(Cl)cc2)CC1
    -47	5%	-7%[15.4 µM]	-6.7%	·	-5	-11%
> Cc1ccc(N=C/C(C(=O)C(F)(F)F)=C(\O)c2cccs2)cc1
    -2	-5%	13%	0.2%	?	-10	-3%
> O=C(COc1ccccc1)Nc1ccc(CSc2ccccc2)cc1
    -7	11%	15%	0.0%	-0.8	-1	6%
> COc1ccc(CNC(=O)[C@H](NC(=O)C2CCN(C(=O)[C@@H](N)CCSC)CC2)C(C)C)cc1
    -6	11%	·	0.5%	0.8	5	9%
> CCOC(=O)c1nc2nc(C)c(Cl)c(=O)n2[nH]1
    -12	5%	15%	-5.6%	0.8	-3	9%
> COc1ccc(OC)c(S(=O)(=O)N2CCC(C(=O)NCC3CCCO3)CC2)c1 (stereo unspecified)
    0	1%	3%	2.1%	4.9	6	7%
> Cc1onc(-c2ccccc2)c1C(=O)Nc1ccc(C(=O)N2CCCCC2)cc1
    1	-2%	7%	1.0%	0.0	-1	3%
> O=C(NCCCN1CCCC1=O)C(=O)NCC1OCCN1S(=O)(=O)c1cc(F)ccc1F (stereo unspecified)
    0	·	-28%	-2.0%	·	·	·
> CC(=O)c1c(C)nc2cc(Cl)ccc2c1N
    -3	15%	-29%	10%	4.3	-2	16%
> Cc1cccc(OCC(=O)NCc2nc(-c3ccccc3)no2)c1
    -14	-6%	8%	1.5%	·	20	2%
> COC(=O)[C@H](Cc1ccccc1)NC(=O)NCc1ccc(C)cc1
    -3	-19%	-3%[15.4 µM]	-23%	-0.3	24	-11%
> COc1ccc(-c2csc(NC(=O)CN3C(=O)CCC3=O)n2)c(OC)c1
    8	11%	-21%	-2.3%	3.0	5	11%
> CCn1c(SCC(=O)N(Cc2ccccc2)C2CCS(=O)(=O)C2)nc2ccccc2c1=O (stereo unspecified)
    -5	-7%	6%	-0.9%	-0.6	-8	-18%
> COc1ccc(N(CC(O)Cn2c3ccccc3c3ccccc32)S(=O)(=O)c2ccccc2)cc1 (stereo unspecified)
    -5	0%	-37%[inhibitor]	?	-1.9	-2	31%[activator]
> Cc1ccc(NC(=O)c2ccc(NCCc3ccccc3)c([N+](=O)[O-])c2)cc1F
    -1	-4%	2%[15.4 µM]	1.8%	0.8	19	-18%
> COc1ccc(OC)c(S(=O)(=O)N2CCN(C(=O)c3ccco3)CC2)c1
    0	1%	?	·	-5.0	11	10%
> O=C(CCC1CCCN(C(=O)Cc2cccc(F)c2)C1)N1CCN(c2ccccn2)CC1 (stereo unspecified)
    -3	11%	0%[15.4 µM]	·	-7.9	14	10%
> CS(=O)(=O)N1CCc2cc(S(=O)(=O)NCCNS(=O)(=O)c3ccc4c(c3)CCN4S(C)(=O)=O)ccc21
    0	12%	-5%[15.4 µM]	·	-5.7	1	29%
> CC(=O)c1ccc(N(CC(=O)NC2CCCCC2)C(=O)c2csnn2)cc1
    -15	12%	-4%	0.8%	1.9	7	4%
> CCOC(=O)CCNC(=O)N1CCCC(C(=O)c2ccccc2SC)C1 (stereo unspecified)
    -4	9%	23%	-2.7%	-12	-11	17%
> O=S(=O)(NCC1CCCO1)c1cc(Cl)ccc1Br (stereo unspecified)
    -11	6%	-5%	0.5%	-0.6	-6	9%
> CC[C@]12c3[nH]c4cc(CCC(=O)N(C)C)ccc4c3CCN1C(=O)[C@@H](CC(=O)NC/C=C(\C)CCC=C(C)C)C[C@@H]2C(=O)N1CCN(C(=O)c2ccco2)CC1
    -14	-3%	·	1.7%	·	·	·
> O=C(NCCCN1CCCCC1)C1CCN(S(=O)(=O)N2CCC3(CC2)OCCO3)CC1
    -3	3%	-23%	-0.4%	1.8	-4	5%
> COc1ccc(/C=C/C(=O)O)cc1S(=O)(=O)NCC1CCCO1 (stereo unspecified)
    -11	6%	?	0.4%	-3.8	9	12%
> Cc1ccc2c(c1)CCCN2C(=O)CSc1ccccc1
    -5	1%	?	-1.3%	·	-7	5%
> CCc1cccc(NC(=O)CCCn2nc(CC)n3c(cc4occc43)c2=O)c1
    -11	0%	-25%	-8.3%	6.4	3	11%
> CCOc1ccc(NC(=O)CCC(=O)NNC(=O)c2cccc([N+](=O)[O-])c2)cc1
    -4	7%	-33%[inhibitor]	·	·	·	·
> Cc1cc(C)n2nc(SCc3ccc(F)cc3Cl)nc2n1
    -4	-5%	25%	-4.5%	2.6	-2	5%
> Cc1cc2cc(C)c3nnc(SCC(=O)Nc4ccc(S(=O)(=O)N5CCCCC5)cc4)n3c2cc1C
    -10	-4%	6%	-12%	-1.5	-7	9%
> Cc1cc(C)cc(OCCCOc2cccc3cccnc23)c1
    -11	-4%	-9%	-28%	-0.3	13	-29%
> CCCn1c(C)cc(C(=O)CN2C(=O)c3cccc(N)c3C2=O)c1C
    24	-7%	-23%	17%	-19	-2	7%
> CN(c1cccc(NC(=O)c2ccccc2N(Cc2ccccc2)S(C)(=O)=O)c1)S(C)(=O)=O
    26	0%	-3%	0.1%	-3.7	-4	12%
> O=C(CN1CCN(S(=O)(=O)c2ccc(F)cc2)CC1)c1ccc(O)c(O)c1
    4	8%	-21%[15.4 µM]	·	-0.3	2	18µM*
> Cc1cc(C)cc(OCC(=O)O/N=C(\N)c2ccccn2)c1
    ?	0%	-19%	-4.2%	1.5	-1	13%
> COc1cccc2c1Oc1ncccc1N(C(=O)CCC(=O)NCc1ccc(C)cc1)C2
    -6	-5%	?	-0.9%&0.8%	-1.2	1	14%
> CC1(C)COC(c2cccc([N+](=O)[O-])c2)OC1
    -2	-8%	44%	·	·	·	·
> Cc1cc(NC(=O)c2ccc3c(c2)C(=O)N(Cc2cccnc2)C3=O)no1
    -22	4%	-2%	-5.3%	4.0	7	-1%
> CC(C)n1c(SCC(=O)Nc2ccc(F)cc2)nnc1C1CC1
    -6	7%	-17%	-3.1%	1.4	5	7%
> COc1cccc(Nc2ccc(Nc3cccc(OC)c3)nn2)c1
    -6	?	-27%	-4.9%	2.6	0	-6%
> CC1CCCCN1CC(O)COc1ccc(OCC(O)CN2CCCCC2C)cc1 (stereo unspecified)
    -3	11%	-8%[15.4 µM]	1.3%	-1.9	5	5%
> COc1ccc(CNC(=O)CSc2n[nH]c(N)n2)cc1OC
    -2	13%	-18%[15.4 µM]	·	-0.8	7	3%
> Cc1ccc(NC(=O)COc2ccc(/C=N\NC(=O)c3cccnc3)cc2)cc1C
    -8	-1%	2%	3.3%	·	-10	3%
> CCOC(=O)c1c(C)[nH]c(C(=O)C(C)OC(=O)c2cccc(OCc3c(C)noc3C)c2)c1C (stereo unspecified)
    2	-25%	-4%	-21%	5.6	13	24%
> C=C1CCN([C@H](C(=O)Nc2ccc(OC)cc2)C(C)C)S(=O)(=O)c2ccccc21
    -7	4%	-32%[inhibitor]	-3.3%	-0.9	-2	6%
> O=C(c1ccc2c(c1)N(Cc1ccccc1)C(=O)CS2)N1CCOCC1
    -5	2%	-57%[inhibitor]	-3.3%	2.4	29	0%
> CCc1nc(SCC(=O)NCC2CCCO2)c2oc3ccccc3c2n1 (stereo unspecified)
    6	-2%	27%	-1.7%	0.8	-4	16%
> CC1CCN(C(=O)c2cc(-c3ccc(Cl)c(Cl)c3)on2)CC1
    -1	6%	-78%[inhibitor]	0.3%	1.2	11	-26%
> CC1(c2nnc(Cc3ccccc3)o2)CC(c2c(Cl)cccc2Cl)=NO1 (stereo unspecified)
    2	8%	-61%[inhibitor]	0.3%	·	·	·
> O=S(=O)(NN=C1CCCCCCC1)c1ccc(Br)cc1
    -24	-3%	-6%	0.5%	0.8	6	10%
> Cc1ccc(-n2c(C)nn(Cc3ccc([N+](=O)[O-])cc3)c2=O)cc1
    3	14%	-25%[15.4 µM]	·	1.0	-13	17%

The list continues.
Every second line gives: D2 PAM	gsp antag	gsp agonist	ClpP mod	Menin MLL FP FL	TRPV1 PAM	Sfp inh
> CC(=O)c1cccc(N(CC(=O)NC2CCCC2)C(=O)c2ccc(C)s2)c1
    2	1%	44%	·	1.0	-6	4%
> Cc1cc(C)n(-c2ccc(NC(=O)C3CCCCN3C(=O)c3cccs3)cc2)n1 (stereo unspecified)
    -7	-7%	?	-1.1%	8.8	0	4%
> CCOP(=O)(OCC)C(Nc1cccc([N+](=O)[O-])c1)c1ccc(OC)cc1 (stereo unspecified)
    -10	-4%	-8%[15.4 µM]	·	2.3	-13	6%
> COc1ccccc1NC(=O)CNC(=O)c1ccccc1C
    8	11%	-32%	-0.4%	4.6	22	11%

High-throughput results as filed in PubChem.
